PINK1 expr mod – changes PINK1 expression; PINK1 immunofluorescence, high-content cytometry, 24 h; Potency, µM (titrated, usually from 76.6 µM), for the others: at the highest dose activation (PINK1 increase), hits mostly activators; 410,000 tested, 0.2% active; active = well fitted activation curve with a large enough effect; inconclusive = small, poorly fitted or top-dose-only effect; inactive = flat fitted curve, though single readings scatter; cell line not stated here;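 further: potency means the concentration at half of the fitted maximal effect; % of control where 0% means no effect; nearly all actives have a fitted effect of over 65% in size; a mitochondrial uncoupler was the plate control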
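Cells are seeded, rested 12 hours, then given compound at five concentrations or DMSO for 24 hours. After fixation, blocking and antibody staining, PINK1 amount and mitochondrial localization are scored; CCCP serves as control.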
Sfp PPTase inh – Sfp phosphopantetheinyl transferase inhibition; 310,000 tested, 3.5% active; AID 1490; Biochemical Sfp PPTase activity, qHTS; Q9F4F7; Potency, µM, without a hit: max response, negative = inhibition, hits mostly inhibitors; active means well fitted inhibition curve with a large enough effect; inconclusive means small, poorly fitted or top-dose-only effect, or another doubt; inactive means no such curve, though single readings can be large or run the other way;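 further: the enzyme is Sfp with the accession as filed and its product quenches rhodamine fluorescence; potency means the concentration at half of the fitted maximal effect; 0% = enzyme reaction without inhibitor and -100% = no enzyme wells; top concentration of the series not given in the record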
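With Hepes-Na pH 7.6 buffer containing 10 mM MgCl2, Sfp (15 nM) modified BHQ-2-YbbR (12.5 uM) using rhodamine-CoA (5 uM). Two reads 30 minutes apart at 525/598 nm yielded each well's rate.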
ClpP mod – qHTS Assay for Activators of ClpP; purified B. subtilis ClpP, FRET peptide cleavage, 20 min; Potency, µM (doses to about 57.5 µM), inactives show at the highest dose activity change, negative = active; 340,000 tested, 1.9% active; AID 651965, 2013; active = well fitted falling curve with a large enough effect; inconclusive = small, poorly fitted or top-dose-only effect; inactive = no such curve, though single readings can be large or run the other way; further: potency means the concentration at half of the fitted maximal effect; the source files actives as falling curves though it sought activators and does not explain the sign; nearly all actives have a fitted effect of over 65% in size; many hits overshoot -100%
Target sequence (P80244 whole entry, looked up): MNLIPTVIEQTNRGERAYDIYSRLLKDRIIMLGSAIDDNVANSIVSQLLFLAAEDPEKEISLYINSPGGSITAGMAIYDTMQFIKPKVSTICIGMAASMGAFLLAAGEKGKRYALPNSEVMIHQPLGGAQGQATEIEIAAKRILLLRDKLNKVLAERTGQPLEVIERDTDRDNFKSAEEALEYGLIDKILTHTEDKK
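FRET quenching reversal measured ClpP activation: 10 microg/mL B. subtilis ClpP at pH 8 with the FRET-FV decapeptide, read at 430 nm after 320 nm excitation. The 20-min minus 0-min signal was scaled between DMSO/no-enzyme wells and ADEP (5.8 microM final).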
D2 ag – activates the human D2 dopamine receptor; P14416; DiscoveRx PathHunter D2 beta-arrestin, luminescence, 90 min; 100% = 57 uM dopamine signal; activation, % (no concentration beside the values); 360,000 tested, 0.084% active; AID 624465; in the data active = activation above about 40%; inconclusive = about 15% to 40%; inactive = below about 15%; further: compound concentration not given in the record; the text of the record calls up to 30% inactive
Target sequence (P14416 whole entry, looked up): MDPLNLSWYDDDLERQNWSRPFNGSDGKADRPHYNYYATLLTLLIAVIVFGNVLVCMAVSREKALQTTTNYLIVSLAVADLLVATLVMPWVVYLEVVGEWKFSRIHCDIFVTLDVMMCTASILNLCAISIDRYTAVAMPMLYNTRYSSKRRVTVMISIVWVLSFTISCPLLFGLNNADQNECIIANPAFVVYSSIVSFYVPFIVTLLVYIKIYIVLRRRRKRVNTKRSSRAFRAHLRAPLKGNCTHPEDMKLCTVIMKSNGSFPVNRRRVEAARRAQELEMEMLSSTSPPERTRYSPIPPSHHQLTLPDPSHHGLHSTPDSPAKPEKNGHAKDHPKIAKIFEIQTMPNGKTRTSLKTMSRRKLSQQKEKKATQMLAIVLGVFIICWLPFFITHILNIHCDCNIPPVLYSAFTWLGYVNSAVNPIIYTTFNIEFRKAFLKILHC
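DiscoveRx PathHunter D2 beta-arrestin cells (2,100/well) attached overnight, then compound-stimulated 90 min at 37 C in HBSS/10 mM HEPES/0.1% Tween-20 buffer; beta-galactosidase complementation read by luminescence after 1 h at ambient temperature. Dopamine 57 uM final (EC100) as control.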
gsp agonist – gsp mutant agonism | 340,000 tested, 0.13% active | Potency, µM (doses to about 76.9 µM), inactives show at the highest dose activation (cAMP increase), most hits filed as activators | gsp mutant cells, cAMP HTRF, 30 min; control for the full effect not named in the record | AID 624287; active = well fitted activation curve with a large enough effect; inconclusive = small, poorly fitted or top-dose-only effect, or another doubt; inactive = no such curve, though single readings can be large or run the other way; cell line not stated here;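 further: phosphodiesterase inhibitor Ro 20-1724 added with compounds to block cAMP breakdown; potency means the concentration at half of the fitted maximal effect; nearly all actives have a fitted effect of over 60% in size; about a fifth of the inactives were tested at one dose only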
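Cells in DMEM/10% FBS with G418 were pretreated with compounds in DMSO plus […] (300 uM stock) for 30 min at 37C. cAMP was measured by HTRF (cAMP-d2 plus anti-cAMP antibody-K) after 30 min at room temperature.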
Menin-MLL FL inh – displaces fluorescein MLL peptide from human menin; Fluorescence polarization, fluorescein-MLL peptide displacement from menin; FP activity change, % at 61.4 µM; 290,000 tested, under 10 active; AID 1766; inconclusive = falling polarisation curve, or a change in total fluorescence; inactive = total fluorescence flat and polarisation flat or rising; no compound was filed as active; the % refers to the polarisation; negative = inhibition;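 further: % of control where 0% means no effect; inhibitors lower the polarisation; unlabelled MLL peptide was the positive control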
gsp antag – gsp mutant antagonism; gsp-mutant cells, cAMP HTRF, 30 min; control for the full effect not named in the record; Potency, µM (series often up to 76.9 µM), for the others: at the top dose activity change, negative = inhibition, most hits filed as inhibitors; 340,000 tested, 0.4% active; active = falling curve of any shape with a large fitted effect; inconclusive = falling curve, mostly with a smaller effect; inactive = flat or rising curve; cell line not stated here;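 further: intracellular cAMP measured with PDE inhibitor Ro 20-1724 present during compound exposure; potency means the concentration at half of the fitted maximal effect; on the % scale 0 is the no-effect control and ±100 the full control effect; nearly all actives have a fitted effect of over 65% in size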
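G418-selected cells were plated in DMEM/10% FBS for 16-24 h at 37C, then treated with compounds plus the PDE inhibitor […] (300 uM solution added) for 30 min at 37C. Intracellular cAMP was measured by HTRF after 30 min lysis at room temperature.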
Numbers without * were called inactive; ? = inconclusive; nt = not tested or not shown; [ ] = dose if it differs, or a comment.

SMILES	PINK1 expr mod	Sfp PPTase inh	ClpP mod	D2 ag	gsp agonist	Menin-MLL FL inh	gsp antag
Cc1nn(-c2ccccc2)c(C)c1S(=O)(=O)O	0.8%	24%	nt	-2.9	1%	1.3	-2%
CC1CCCC(NC(=O)c2cc(S(=O)(=O)N3CCOCC3)ccc2F)C1C (stereo unspecified)	-2.5%	11%	-2.1%	8.0	?	-6.4	-5%
Cc1cccc(NC(=O)CN2C(=O)COc3ccc(Cl)cc32)c1C	2.4%	6%	2.8%	-4.4	?	1.5	0%
Cc1ccc(NC(=O)C2CCN(S(=O)(=O)c3cccs3)CC2)cc1C	-0.6%	?	-3.8%	1.1	?	1.7	-23%
Cc1cc(=O)[nH]c2c(C)cc(S(=O)(=O)N3CCOCC3)cc12	-1.2%	nt	-8.6%	2.0	-42%[inhibitor]	nt	8%
O=C(Cn1cccc1C(=O)c1ccccc1)NCc1cccc(Cl)c1	5.9%	-3%	1.1%	1.2	?	0.9	0%
COc1ccc(C(=O)Nc2nnc(-c3cccs3)s2)cc1	10%	-12%	93%	-3.3	?	-4.7	19%
O=c1cc(N2CCN(c3ccccc3)CC2)[nH]c(=O)n1C1CCCCC1	8.2%	13%	-1.3%	0.6	11%	1.4	1%
COC(=O)c1ccc(C(=O)OC)c(NS(C)(=O)=O)c1	-4.9%[38.3 µM]	5%	-5.4%	0.3	11%	0.2	11%
Nc1nc(NCc2ccco2)nc(Nc2ccccc2)c1[N+](=O)[O-]	-1.7%	0%	nt	-2.4	4%	5.6	2%
COc1ccc(N(CC(=O)NCc2ccco2)S(=O)(=O)c2ccc(OC)c(OC)c2)cc1	?	5%	0.6%	2.4	-50%[inhibitor]	1.5	-2%
Cc1ccc(OC(F)F)c(NC(=O)Nc2ccc3c(c2)OCO3)c1	5.7%	4%	-1.9%	-5.1	8%[15.4 µM]	3.8	-22%
CCC(CC)N=C1NS(=O)(=O)c2cc([N+](=O)[O-])ccc21	2.7%	9%	nt	?	-19%	-4.5	-3%
COc1ccc(NC(C)=O)cc1C	2.4%	-4%	nt	-0.9	16%[15.4 µM]	-0.7	13%
Cc1ccccc1NS(=O)(=O)c1ccc(C2CNC(=O)C2)cc1 (stereo unspecified)	0.0%[38.3 µM]	1%	-2.8%	0.0	13%	0.8	5%

(cont.)
SMILES	PINK1 expr mod	Sfp PPTase inh	ClpP mod	D2 ag	gsp agonist	Menin-MLL FL inh	gsp antag
N#Cc1cccc(NS(=O)(=O)c2ccc(S(=O)(=O)N3CCOCC3)cc2)c1	0.3%	nt	0.9%	-1.7	-9%	nt	-8%
O=C(N/C(=C/c1ccco1)C(=O)N1CCOCC1)c1ccccc1Br	-0.8%	0%	-0.5%	6.9	3%[15.4 µM]	nt	-1%
COc1cccc(/C=N/NC(=O)c2nc(-c3ccccc3)cc(-c3ccccc3)n2)c1	-3.0%	14%	-28%	-2.8	-3%	0.0	-16%
O=C(NCCN1CCCC1)c1ccc2c(c1)N(Cc1ccc(F)cc1)C(=O)c1ccccc1S2=O (stereo unspecified)	1.9%	0%	-3.1%	-1.4	?	-3.4	-2%
Cc1ccc(NC(=O)COC(=O)C2CC(=O)N(Cc3ccccc3)C2)cc1F (stereo unspecified)	0.0%	5%	nt	2.6	3%[15.4 µM]	-3.6	nt
CCC(C)(C)n1nnnc1C(c1ccc(C)cc1)N(Cc1ccco1)Cc1cccs1 (stereo unspecified)	2.6%	5%	-5.6%	-0.3	3%	-2.6	-6%
C=C(C)c1cccc(C(C)(C)NC(=O)N2CCOCC2)c1	-0.2%	13%	0.0%	-5.6	?	4.1	-5%
Cc1ccc(C(=O)NC(=S)NCc2cccnc2)cc1C	0.9%	5%	-1.4%	0.6	11%	-2.5	-5%
Nc1cccc2c(=O)c3ccccc3[nH]c12	1.6%	-5%	nt	4.2	15%	-2.6	?
COc1ccc2nc(NC(=O)C3CCCN(S(=O)(=O)c4cccc5nonc45)C3)sc2c1 (stereo unspecified)	-1.4%	24%	-2.8%	1.9	3%	9.9	-4%
O=C(c1ccc2c(c1)OCCO2)C1CCN(S(=O)(=O)c2ccc(F)cc2)CC1	2.1%[38.3 µM]	1%	-3.8%	1.3	9%	2.1	-8%
COc1cc(CC(=O)OCC(=O)NC2CCCCC2C)cc(OC)c1OC (stereo unspecified)	0.8%	nt	-0.7%	-2.7	9%	nt	4%
Cn1cc(C(=O)N/N=C/c2c(O)ccc3ccccc23)ccc1=O	0.6%	12%	0.7%	4.0	-15%	?	-5%
COc1ccccc1CN1[C@@H](CC(=O)O)c2cc(F)ccc2S1(=O)=O	-0.4%	nt	-4.8%	-2.2	nt	nt	9%
Nc1nc(NC(=O)c2ccc(Cl)cc2)nn1-c1ccccc1	5.8%	2%	1.2%	-5.2	14%	1.4	2%

The list continues.
SMILES	PINK1 expr mod	Sfp PPTase inh	ClpP mod	D2 ag	gsp agonist	Menin-MLL FL inh	gsp antag
OC1(c2ccc3ccccc3c2)CCN(Cc2ccccc2)C1 (stereo unspecified)	13%	89µM*	2.2%	-2.0	-30%[inhibitor]	-2.6	19%
Cc1ccc(CNS(=O)(=O)c2c(C)[nH]c(=O)[nH]c2=O)cc1	-0.1%	17%	0.2%	7.5	23%	9.0	12%
O=C(CSc1nc2ccccc2c(=O)[nH]1)N1CCN(S(=O)(=O)c2ccccc2)CC1	-0.2%[38.3 µM]	14%	-2.4%	-1.5	-2%	-1.2	0%
O=C(CSCc1cccc(Br)c1)N/N=C/c1ccc2c(c1)OCO2	-3.4%	-9%	-12%	-3.5	22%	-0.3	?
COC(OC)c1ccnc(-c2ccc(OC(=O)c3ccccc3)cc2)n1	-1.0%	9%	-1.9%	-4.4	1%[15.4 µM]	4.9	-5%
COc1ccc(-n2c(NCCN(C)C)nc3sc4c(c3c2=O)CCCCC4)cc1	?	-11%	-2.3%	-2.2	?	0.8	10%
CNC(=S)NN(C)c1nc(C)cc(C)n1	0.4%	?	-1.8%	-1.2	-1%	1.7	2%
COc1ccc(CCC(C)Nc2cccc(F)c2)cc1 (stereo unspecified)	?	45µM*	0.3%	-0.4	-9%	3.6	1%
Cc1cc(N/C(=N/S(=O)(=O)c2ccc(F)cc2)c2ccccc2)n(-c2ccccc2)n1	0.4%	7%	nt	2.0	14%	-5.2	-22%
O=C(O)c1cc(-c2ccccc2Cl)n[nH]1	-1.8%	-8%	-0.1%	-0.5	-3%	0.2	14%
CCc1ccc([C@H]2[C@@H]3C(=O)C[C@@H]4C(=O)N(Cc5ccccc5)C(=O)[C@@H]4[C@@H]3CN2S(=O)(=O)c2ccc(C)cc2)cc1	-0.3%	nt	-2.8%	?	nt	nt	nt
Cc1ccc(S(=O)(=O)N2CCN(C(=O)CN3CCCC3)C2)cc1	0.3%	14%	-5.7%	2.6	13%	-0.7	1%
O=C(O)C1Cc2ccccc2CN1S(=O)(=O)c1ccccc1 (stereo unspecified)	-0.3%	21%	nt	-3.5	-3%[15.4 µM]	-5.9	-18%
Cc1ccc(CNC(=O)C2CCCCC2C(=O)O)cc1 (stereo unspecified)	1.9%	15%	-1.0%	-2.5	-2%	0.9	-4%
CCc1ccc(S(=O)(=O)/N=C2/C=C(Sc3ncn[nH]3)C(=O)c3ccccc32)cc1	4.4%	3.5µM*	11%	15	18%	-1.2	-17%

2 entries picked at random from those above, as already listed:
SMILES	PINK1 expr mod	Sfp PPTase inh	ClpP mod	D2 ag	gsp agonist	Menin-MLL FL inh	gsp antag
Cc1ccc(S(=O)(=O)N2CCN(C(=O)CN3CCCC3)C2)cc1	0.3%	14%	-5.7%	2.6	13%	-0.7	1%
O=C(O)c1cc(-c2ccccc2Cl)n[nH]1	-1.8%	-8%	-0.1%	-0.5	-3%	0.2	14%

Next section
SMILES	PINK1 expr mod	Sfp PPTase inh	ClpP mod	D2 ag	gsp agonist	Menin-MLL FL inh	gsp antag
Cc1ncn2cc(-c3ccc(Cl)cc3Cl)[nH]c(=O)c12	-1.2%	1%	nt	2.2	-17%	-2.6	15%
COc1cc(OC)c(OC)cc1/C=C1\CCC(C2CCCC2)C1=O (stereo unspecified)	0.2%	-14%	-0.6%	-5.8	-25%	11	-26%
CCN(CC(=O)Nc1ccc(S(=O)(=O)N2CCCCC2)cc1)Cc1ccccc1	1.9%	nt	-4.2%	-3.7	-53%[inhibitor]	nt	-14%
Cc1ccc2c(c1)C1CN(C)CCC1N2CC(=O)N(C)c1ccccc1 (stereo unspecified)	-1.5%[38.3 µM]	-5%	-1.9%	0.4	-11%	0.8	5%
COc1ccc(NC(=S)N2CCN(C/C=C/c3ccccc3)CC2)cc1	0.4%	9%	nt	2.2	6%	6.9	-4%
COc1ccc(CCNC(=O)c2ccc(CS(=O)(=O)c3ccc(Cl)cc3)o2)cc1OC	-5.4%[38.3 µM]	8%	-2.2%	-0.3	-21%	-0.5	40µM*
Cc1cc(C)n(/N=C/c2c[nH]c3ccccc23)c(=O)c1C#N	5.3%[38.3 µM]	1%	0.4%	0.6	-21%	5.5	-2%
COc1cc(C(C)=O)ccc1OCC(=O)NCc1ccccc1CN1CCCC1	-0.7%	nt	-14%	-2.8	-140%[inhibitor]	nt	nt
Cc1[nH]c2ccccc2c1SCC(=O)N1CCCCC1	-0.3%	4%	0.5%	-6.3	-4%	-4.0	4%
O=C(NCc1ccccn1)Nc1ccccc1C(F)(F)F	-1.2%	4%	-3.5%	3.1	9%	nt	-11%
COc1ccc(Cl)cc1NC(=S)N1CCCC1	2.3%	0%	nt	4.5	-2%[15.4 µM]	-3.1	11%
COc1ccc2[nH]c(C)c(C(=O)CN3CCN(C/C=C/c4ccccc4)CC3)c2c1	-2.2%	14%	0.6%	0.0	-30%[inhibitor]	-0.2	-5%
O=C(COC(=O)c1cccs1)c1ccccc1	-2.2%	9%	-0.4%	-3.3	2%	0.8	7%
CCNC(=O)C1(C)CCCN(CCOc2ccc(OC)cc2)C1 (stereo unspecified)	-0.6%	nt	2.6%	-2.6	nt	nt	nt
CCn1nc(C)cc1C(=O)N1CCCC(C(=O)c2ccccc2SC)C1 (stereo unspecified)	-0.4%	6%	-0.6%	3.8	44%	-1.6	-17%
